Compound activity as filed in PubChem.
UCH37 inh: inhibitors of human deubiquitinating enzyme UCH37; purified proteasome/UCH37, Ub-AMC cleavage fluorescence; inhibition, % (no concentration beside the values); Q9Y5K5; hit rate 0.33% among 330,000;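 active means mean of two replicates above 20%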;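 further: 0% = compound-free wells with enzyme and 100% = wells lacking proteasome; stock transfer was 100 nL into about 20 µL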
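Signal – fluorescence, ex 355 nm, em 460 nm · System – Proteasome-bound UCH37 · Input – 0.15 nM proteasome as dispensed · Timing – 30 min preincubation with enzyme, 25 min cleavage at room temperature · Read-out basis – percent inhibition of cleavage signal versus uninhibited and no-proteasome wells · Medium – Tris-HCl pH 7.4 with ATP-MgCl2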
Beta2AR agonist: agonists of human beta-2 adrenergic receptor inducing internalization; P07550; Am2.2-beta2AR cells, FAP receptor internalization, flow cytometry; reference of the scale not given here; response, % (no concentration beside the values); hit rate 0.43% among 340,000; AID 504454;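 active means response above a set limit, near 3 SD of response in nonfluorescent compounds, cut at about 42% in these data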;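 further: stock transfer was 100 nL into about 11 µL; a reference agonist was the positive control; negative values mostly stem from fluorescent compounds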
ALR H2O2 inh: human ALR oxidase inhibition via reduced H2O2; hit rate 3.8% among 290,000; P55789; purified ALR, DTT oxidation, H2O2 HRP-luminol luminescence; inhibition, % (concentration not given with the values);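 active means mean and each replicate at 75% or more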;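 further: stock transfer was 7.5 nL into about 7.5 µL; 0% = neutral wells and 100% = wells with inactivated enzyme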
Target sequence (P55789 whole entry, looked up): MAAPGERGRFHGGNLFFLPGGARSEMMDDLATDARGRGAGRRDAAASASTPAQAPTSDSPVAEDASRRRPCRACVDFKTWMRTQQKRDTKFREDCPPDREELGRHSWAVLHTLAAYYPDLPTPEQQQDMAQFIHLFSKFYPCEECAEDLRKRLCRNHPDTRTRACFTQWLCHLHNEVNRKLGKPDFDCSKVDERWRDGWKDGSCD
FGF22 binding: binders of recombinant human FGF22 by thermal shift. Q9HCT0. SYPRO orange fluorescence; percent of sucrose octasulfate shift, DMSO zero. calls only at 9.99 µM. hit rate 1.5% among 340,000;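 active means melting point raised past a set limit in the mean and every replicate; three in four hits are not shown here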
E coli growth: inhibitors of Escherichia coli growth | OD600, 23 h; active compounds read low | OD600 absorbance (concentration not given with the values) | AID 1053175 | hit rate 0.21% among 330,000;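 active means OD600 absorbance below the run mean of sample wells minus 3.6 SD, in any replicate, cut at about 0.56 in these data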;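 further: stock transfer was 300 nL into about 60 µL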
Ecoli rRNA inh: inhibitors of bacterial rRNA selective over humanized ribosomes | AID 720706 | E. coli WT GFP vs humanized-ribosome RFP mutants, fluorescence, 24 h; active compounds read low; DMSO median 0, no signal -100 | GFP signal change (wild-type ribosome), % (concentration not given with the values) | hit rate 1.6% among 350,000;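 active means significant combined selectivity score with lowered wild-type GFP, culture density cut under 30%, mutant RFP and density less affected; inactive means any of these conditions unmet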; further: one replicate is shown; some compounds called inactive have numbers as strong as hits
HNF4A DNA FP: change in binding of human HNF4 alpha to DNA; P41235; HNF4a-FITC DNA binding, fluorescence polarization, 1 h; activity change, % at 10 µM; hit rate 0.3% among 360,000; in the data active means activity change above about 30%, passing the limit was not always enough;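 further: controls were the assay level and a saturating level of protein; the project sought stronger binding though the title names inhibitors; some compounds called inactive have numbers as strong as hits; positive values seem to mean higher polarization but the record does not say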
Target sequence (P41235 whole entry, looked up): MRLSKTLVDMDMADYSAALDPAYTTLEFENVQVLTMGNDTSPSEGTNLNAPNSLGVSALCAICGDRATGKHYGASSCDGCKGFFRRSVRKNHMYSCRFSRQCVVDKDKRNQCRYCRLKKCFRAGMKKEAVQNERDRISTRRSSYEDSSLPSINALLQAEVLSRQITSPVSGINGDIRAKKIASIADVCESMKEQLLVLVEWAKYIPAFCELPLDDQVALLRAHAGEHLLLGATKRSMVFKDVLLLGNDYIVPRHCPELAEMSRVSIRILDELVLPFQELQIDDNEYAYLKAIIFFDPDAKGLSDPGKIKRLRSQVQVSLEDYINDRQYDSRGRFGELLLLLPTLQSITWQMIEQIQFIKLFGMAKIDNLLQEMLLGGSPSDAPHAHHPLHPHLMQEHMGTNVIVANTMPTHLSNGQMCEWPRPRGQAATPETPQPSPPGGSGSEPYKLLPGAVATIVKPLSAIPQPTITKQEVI
Ecoli rRNA inh OD600: further read-out of Ecoli rRNA inh, marked with its call; OD600 change, %; measured here: OD600 growth;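 optical density of the mix in the first replicate; 0 = DMSO median and -100 = no signal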
Ecoli rRNA inh RFP: further read-out of Ecoli rRNA inh, marked with its call; RFP signal change, %; measured here: RFP humanized mutant strains;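 first replicate; 0 = DMSO median and -100 = no signal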
The depositor's hits bear a star; i = inactive; / = not tested or not shown. The list is partial; count on the stated rates, not on these rows.

mol	UCH37 inh	Beta2AR agonist	ALR H2O2 inh	FGF22 binding	E coli growth	Ecoli rRNA inh	Ecoli rRNA inh OD600	Ecoli rRNA inh RFP	HNF4A DNA FP
O=C(NNS(=O)(=O)c1ccccc1)c1ccc([N+](=O)[O-])cc1	3.8	-1	11	i	0.68	-3	3	-11	-1.2
CC(C)NC(=O)COC(=O)CNC(=O)c1cc(Cl)cc([N+](=O)[O-])c1	1.5	4	-21	i	0.69	19	17	-0.8	-0.4
COc1ccc(CCC(=O)OCC(=O)NCc2ccccc2)cc1	6.0	-5	-4	i	0.67	-3	-7	0.2	2.4
O=C(NCC1CCCCC1)C1CCN(C(=O)NC2CCCCC2)CC1	3.6	0	5	/	0.69	/	/	/	1.1
COc1ccc(C2CC(C)=NN2C=O)cc1OC (configuration not stated)	1.5	2	-3	/	0.71	/	/	/	5.4
O=C(COC(=O)c1ccco1)NCCc1ccc(Cl)cc1	5.4	-4	-1	i	0.72	/	/	/	5.7
C/C=C/C=C\C(=O)Nc1cccc(C2=NOC3(C2)C[C@@H](C(N)=O)N(C(=O)/C(C)=C/C)C3)c1 (some centres not stated)	0.9	1	-2	i	/	11	3	3.4	-6.6
O=C(CN1C(=O)NC2(CCCC2)C1=O)Nc1ccccc1-c1ccccc1	1.3	2	-1	i	0.73	-1	-5	-5.7	-0.5
CCOC(=O)Nc1ccc(S(=O)(=O)Nc2nc(C)cc(C)n2)cc1	4.7	1	-27	i	0.66	5	7	-1.6	-2.9
CC(C)COC(=S)Nc1ccccc1	0.9	-1	-14	/	0.7	/	/	/	-1.6
Cc1cc(C(=O)CSc2nnc(-c3ccc(F)cc3)o2)c(C)n1CC1CCCO1 (configuration not stated)	-2.4	4	2	/	0.7	/	/	/	-5.1
CC(C)NC(=O)N(C)C[C@H]1Oc2ccc(NC(=O)Nc3ccccc3)cc2C(=O)N([C@H](C)CO)C[C@@H]1C	-0.4	4	2	/	0.75	5	-1	4.0	-2.8
C[C@H](CCC(=O)OCc1cn(CC(=O)c2ccc(O)cc2)nn1)C1CC[C@H]2[C@@H]3CC[C@@H]4C[C@H](O)CC[C@]4(C)[C@H]3C[C@H](O)[C@]12C (some centres not stated)	/	-1	/	i	/	-7	-1	9.9	-4.3
O=C(CCc1nc2ccccc2c(=O)[nH]1)NCCN1C(=O)S/C(=C\c2ccc(Cl)cc2Cl)C1=O	-2.0	19	-3	i	0.65	-2	-3	-1.5	16
Cn1c(-c2ccccc2)cnc1NCc1cccc([N+](=O)[O-])c1	1.6	-8	43	i	0.67	1	-2	-2.5	-0.8
CCn1c(-c2cccc(S(=O)(=O)N3CCCC3)c2)n[nH]c1=S	2.9	-4	9	i	0.68	6	6	3.8	2.5
O=S1(=O)CC(N2CCCCC2)CN1Cc1cn(Cc2cccc(Cl)c2)nn1 (configuration not stated)	/	/	/	i	/	12	4	-2.0	1.0
COc1ccccc1OCCCOc1ccc(C)cc1Br	0.4	0	/	/	0.67	/	/	/	-0.1
Cn1c(=O)[nH]c(=O)c2c1nc(NCCCO)n2CCCc1ccccc1	-1.4	3	22	i	0.71	2	0	-8.1	-0.6
CCOC(=O)c1ccc2nc(C(F)(F)F)[nH]c(=O)c2c1	-16	14	-13	/	0.74	/	/	/	2.5
COc1ccc([C@@H]2C[C@H]3[C@@H](CN2S(=O)(=O)c2ccccc2)C(=O)C[C@@H](c2ccccc2)N3S(=O)(=O)c2ccc(C)cc2)cc1	/	/	/	i	/	13	14	-0.6	-2.9
O=C(O)c1c(Cl)cccc1Nc1ccccc1	4.3	/	/	/	0.65	-25	-48	-8.7	-8.9
Cc1ccc(C(=O)Cn2cnc3ccccc3c2=O)cc1C	2.8	7	-4	/	0.74	/	/	/	-2.9
CC(c1ccccc1F)n1cc(C(=O)NCCc2ccco2)nn1 (configuration not stated)	0.7	-6	-1	/	0.77	/	/	/	-0.1
CCCS(=O)(=O)N1CCCC(C(=O)NCc2ccc3c(c2)OCO3)C1 (configuration not stated)	0.4	7	-4	/	0.65	/	/	/	2.4
COC(=O)CNC(=O)c1c(-c2ccccc2Cl)noc1C	0.5	9	/	/	0.75	/	/	/	0.2
COCCCNC(=S)NC1CCCCC1	-0.2	3	5	/	0.66	/	/	/	6.5
O=c1cc(-c2ccc(O)c(O)c2)oc2c1ccc1ccccc12	7.9	5	62	i	0.65	/	/	/	-7.1
CC(=O)c1ccccc1NC(=O)c1ccc(OCc2c(C)noc2C)cc1	-16	2	-1	i	0.72	14	18	1.1	2.9
Cc1[nH]c2ccccc2c1C(=O)C(=O)N1CCN(c2ccccc2Cl)CC1	2.4	13	5	i	0.67	0	-7	3.3	-4.4
CC(C)c1onc(C(=O)NCc2ccccn2)c1[N+](=O)[O-]	-1.1	-7	-3	i	0.7	13	12	-1.4	2.2
COc1ccc(C(=O)NC2CCCCCC2)cc1S(=O)(=O)Nc1ccc(Br)cc1	2.7	14	/	/	0.74	/	/	/	-2.2
O=C1OCCN1C(=O)[C@H]1[C@H](c2ccc(F)cc2)C(c2cccc(Cl)c2)=NN1c1ccc(Br)cc1	i	-4	/	i	0.73	11	20	1.1	2.0

Among those listed so far, these have a Cl atom.
mol	UCH37 inh	Beta2AR agonist	ALR H2O2 inh	FGF22 binding	E coli growth	Ecoli rRNA inh	Ecoli rRNA inh OD600	Ecoli rRNA inh RFP	HNF4A DNA FP
CC(C)NC(=O)COC(=O)CNC(=O)c1cc(Cl)cc([N+](=O)[O-])c1	1.5	4	-21	i	0.69	19	17	-0.8	-0.4
O=C(COC(=O)c1ccco1)NCCc1ccc(Cl)cc1	5.4	-4	-1	i	0.72	/	/	/	5.7
O=C(CCc1nc2ccccc2c(=O)[nH]1)NCCN1C(=O)S/C(=C\c2ccc(Cl)cc2Cl)C1=O	-2.0	19	-3	i	0.65	-2	-3	-1.5	16
O=S1(=O)CC(N2CCCCC2)CN1Cc1cn(Cc2cccc(Cl)c2)nn1 (configuration not stated)	/	/	/	i	/	12	4	-2.0	1.0
O=C(O)c1c(Cl)cccc1Nc1ccccc1	4.3	/	/	/	0.65	-25	-48	-8.7	-8.9
COC(=O)CNC(=O)c1c(-c2ccccc2Cl)noc1C	0.5	9	/	/	0.75	/	/	/	0.2
Cc1[nH]c2ccccc2c1C(=O)C(=O)N1CCN(c2ccccc2Cl)CC1	2.4	13	5	i	0.67	0	-7	3.3	-4.4
O=C1OCCN1C(=O)[C@H]1[C@H](c2ccc(F)cc2)C(c2cccc(Cl)c2)=NN1c1ccc(Br)cc1	i	-4	/	i	0.73	11	20	1.1	2.0
